Source: PubChem BioAssay
RVFV N-RNA inh = RVFV nucleocapsid-RNA interaction inhibition; P21700; RVFV N-RNA binding, fluorescence polarization; hits give low values; % bound, % (concentration not given with the values); 0.1% of 20,000 active; AID 651828;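 active = between 0 and 58% in either replicate with normal brightness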;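 also: 100 nL library stock added to about 12 µL; 100% = protein and probe without compound and 0% = probe alone; numbers are from one replicate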
Target sequence (P21700 whole entry, looked up): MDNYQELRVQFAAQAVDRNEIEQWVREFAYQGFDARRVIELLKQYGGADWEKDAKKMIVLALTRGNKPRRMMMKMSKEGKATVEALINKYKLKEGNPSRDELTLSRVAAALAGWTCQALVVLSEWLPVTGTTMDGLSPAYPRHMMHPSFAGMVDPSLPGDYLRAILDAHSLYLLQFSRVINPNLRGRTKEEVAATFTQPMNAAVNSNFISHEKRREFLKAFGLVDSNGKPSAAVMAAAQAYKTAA
* = called active by the depositor; & = joins results of further samples. Some of the compounds tested; the hit share may differ from the screen's.

SMILES	RVFV N-RNA inh
CCSc1nc2c(c(=O)n1-c1ccc(F)cc1)SCC2	94.5
C=CCn1c(N)cc(=O)nc1SC(C)C(=O)Nc1ccc(C)cc1 (stereo unspecified)	100.3
C=CCSc1nnc(-c2cc(OCC(F)(F)F)nc(OCC(F)(F)F)c2)n1Cc1ccco1	95.4
Cc1nn(C)c(C)c1NC(=O)/C(C#N)=C\N(C)C	96.1
C=CCN(c1ccc(C(=O)Nc2ccc3c(c2)OCO3)cc1)S(C)(=O)=O	98.5
CCOC(=O)[C@@H](CCc1ccccc1)N[C@@H](C)C(=O)N1CCC[C@H]1C(=O)O	94.2
CCCCC(=O)NC1=NC(=O)C(C)(C)S1	94.5
O=C(CC1(O)OC(c2ccccc2)=CC1=O)c1ccccc1 (stereo unspecified)	97.7
COc1ccc(Br)cc1CN1CCN(C2CCCCCC2)CC1	107.7
CN1C(=O)/C(=C\c2ccc(C(=O)N3CCOCC3)cc2)SC1=S	99.4

Looked up above.
For RVFV N-RNA inh, Cc1nn(C)c(C)c1NC(=O)/C(C#N)=C\N(C)C is entered as 96.1
For RVFV N-RNA inh, C=CCN(c1ccc(C(=O)Nc2ccc3c(c2)OCO3)cc1)S(C)(=O)=O is entered as 98.5
For RVFV N-RNA inh, COc1ccc(Br)cc1CN1CCN(C2CCCCCC2)CC1 is entered as 107.7

The listing continues.
SMILES	RVFV N-RNA inh
NCC(O)c1cc(O)c(O)cc1F (stereo unspecified)	92.0
CNc1ccccc1C(=O)OCc1ccc(C(=O)OC)cc1	104.0
Cn1c(=O)c2c(ncn2C)n(C)c1=O	96.8
Cc1ccc2nc(-c3cccc(NC(=O)COc4ccccc4)c3C)oc2c1	94.2
CC(c1ccccc1)n1c(Cn2ncc3ccccc3c2=O)n[nH]c1=S (stereo unspecified)	96.0
O=C(O)CCc1nc(-c2ccccc2)c(-c2ccccc2)o1	97.2&95.1
COc1ccc(C(C)(C)C)cc1S(=O)(=O)N1CCN(c2ccccc2)CC1	89.7
Cc1ccc(C)c(NC(=O)CSc2ncccn2)c1	95.8
Cc1ccc(C(CNC(=O)COc2ccccc2)N2CCN(C)CC2)cc1 (stereo unspecified)	88.6
C=CCCOc1ccccc1C(N)=O	95.3
CN(C1CCS(=O)(=O)C1)S(C)(=O)=O (stereo unspecified)	103.9
O=c1c(N2CCCC2)c(Cl)cnn1-c1ccccc1	99.3
CC(C)(C)c1ccc(NNC(=O)c2ccno2)cc1	96.6
CCN(CC)S(=O)(=O)c1ccc2nc(NC(=O)c3cc(OC)c(OC)c(OC)c3)sc2c1	94.0
CC(C)(C)OC(=O)/C(C#N)=C/c1cccs1	101.6
COc1ccc(OC)c2c(=S)c3ccccc3[nH]c12	96.5
O=C(Nc1c[nH]c2ccccc12)NC1CCCC1	94.2
CC1(O)CS(=O)(=O)CC1(C)O (stereo unspecified)	93.4
COC(=O)Nc1nc2ccc(C(=O)c3ccccc3)cc2[nH]1	100.6&101.5
N#CC(C#N)=C(c1ccccc1)c1ccccc1	100.1
NC(=O)N/N=C1\CCc2ccccc21	94.7
COC(=O)c1cc(=O)n2c(nc3cc(C(F)(F)F)ccc32)s1	91.7
CCNC(=O)N(c1ccccc1)c1ccccc1	89.0
CCCc1c(OCCCCc2nn[nH]n2)ccc(C(C)=O)c1O	96.6
CCn1c(C)cc2c(c1=O)C(c1cccc(OC)c1)C(C#N)=C(N)O2 (stereo unspecified)	94.8
Cn1c(=O)c(-c2c(Cl)cccc2Cl)cc2cnc(Nc3ccc(N4CCOCC4)cc3)nc21	98.2
O=C(NCc1ccco1)c1ccccc1NS(=O)(=O)c1ccc(F)cc1	99.5
C[n+]1cc2c3c(ccc2c2ccc4cc5c(cc4c21)OCO5)OCO3	61.4
CCCn1c(=O)c(C)cn2nc(N)nc12	97.5
CC(=O)N(C(C)=O)c1ccc2nc(C)[nH]c(=O)c2c1	90.8
N#Cc1cc(Sc2ccc(Cl)cc2)c(-n2nnc3ccccc32)cc1C#N	90.8
CCCn1c(=NC(=O)C(C)(C)C)sc2c(OC)ccc(OC)c21	101.8
CC(=O)Nc1cccc(C(=O)OCc2ccccc2)c1	90.8
Cc1ccc2oc(=O)ccc2c1	94.6
CCOC(=O)N1CCC(NS(=O)(=O)c2ccc(C#N)cc2)CC1	92.1
CC1=C(C(=O)OC2CCCC2)C(c2coc3ccc(C)cc3c2=O)C2=C(CC(c3ccco3)CC2=O)N1 (stereo unspecified)	96.3
Brc1ccc(-c2nnc3sc(CN4CCc5ccccc54)cn23)cc1	92.9
O=C(O)COc1ccc(Br)cc1CO	98.8
CCCC(=O)Nc1ccc(N2CCCCC2C)cc1 (stereo unspecified)	99.7
O=c1[nH]cnc2c1ncn2C1O[C@H](CO)[C@@H](O)[C@H]1O (stereo partly specified)	96.4
COc1ccc(CC2C(=O)NC(=S)NC2=O)cc1	94.1
CCc1ccc(/C=C(\C#N)S(=O)(=O)c2ccccc2)s1	107.9
O=C(O)c1ccccc1-c1ncc(-c2ccccc2)o1	107.7
Cc1cccc(C(=O)Oc2ccc(C#N)cc2)c1	95.1
N#C/C(=C(\O)Cc1ccccc1)c1nc2ccccc2[nH]1	93.4
Cc1ccc(C(=O)c2coc3ccc(O)c(Cl)c23)cc1	105.2
CC1=CC(=O)C(CCCC2=CC(=O)C=CC2=O)=CC1=O	99.7
C/C(=C\C(=O)c1ccccc1)Nc1ccc2c(c1)OCO2	100.5
CC[C@@H]1OC(=O)C[C@H](O)[C@@H](C)[C@@H](O[C@@H]2O[C@H](C)[C@@H](O[C@H]3C[C@@](C)(O)[C@@H](O)[C@H](C)O3)[C@H](N(C)C)[C@H]2O)[C@@H](C=O)C[C@@H](C)C(=O)/C=C/C(C)=C\[C@@H]1CO[C@H]1O[C@@H](C)[C@H](O)[C@H](OC)[C@@H]1OC	96.5
CCC(=O)Nc1ccc(N2CCCCS2(=O)=O)cc1	95.1

Next section.
SMILES	RVFV N-RNA inh
O=c1[nH]nc(SCc2nnc(-c3cccc(Cl)c3)o2)n1C1CCCCC1	94.2
Oc1cccc(-c2nc(N3CCOCC3)c3oc4ncccc4c3n2)c1	106.7
COc1ccc(NC(=O)C2C3CCCCC32)cc1 (stereo unspecified)	91.0
COc1cc(OC)cc(C(=O)Nc2ccccc2N2CCN(C)CC2)c1	87.7
COc1ccc(C2c3c(oc4ccccc4c3=O)C(=O)N2Cc2ccncc2)cc1 (stereo unspecified)	99.6
CC1Cc2c([nH]c3ccccc23)C(=O)N1 (stereo unspecified)	88.4
Cc1c(OC(=O)c2ccco2)ccc2c1CCCC2	103.1
O=C(O)CCC(=O)Nc1cccc(C(=O)c2ccccc2)c1	96.2
O=C1c2ccccc2C(=O)N1CN(CCCn1ccnc1)CN1C(=O)c2ccccc2C1=O	92.9
CSc1nc(N)c2ncn([C@@H]3O[C@H](COP(=O)(O)OP(=O)(O)O)[C@H](O)C3O)c2n1 (stereo partly specified)	100.9
FC(F)(F)c1cccc(N2CCN(C(=S)Nc3ccc4c(c3)OCO4)CC2)c1	89.2
O=c1ccc(OCCOc2ccccc2)nn1-c1ccccc1	101.9
Cc1ccccc1CSc1nnc(Cn2c(=O)sc3ccccc32)n1C	93.1
COC(=O)c1sccc1OCc1nnc(-c2ccc(OC)cc2)o1	95.2
COc1ccc(-c2nc3ccccc3c(C(N)=O)c2C)cc1	93.4
O=C(Cc1ccccc1)NC(=S)Nc1ccccc1O	102.3
O=c1c(O)c(-c2cc(O)c(O)c(O)c2)oc2cc(O)cc(O)c12	96.5
CCn1c(NCCCO)nc2ccccc21	93.1
Cc1ccc2n1CCN(c1nc(-c3ccc(Cl)cc3)cs1)C2C (stereo unspecified)	96.4
N[C@H](C(=O)O)c1cc(O)cc(O)c1	108.2
COc1cccc(C(=O)NCCS(=O)(=O)NC2CCCC2)c1	92.7
CN1C(=O)/C(=C/c2ccc(C(=O)NCC(=O)O)cc2)SC1=S	112.0
COC(=O)c1c(C)oc(C)c1S(=O)(=O)N1CCC(O)(c2ccc(Cl)cc2)CC1	94.5
O/N=C/C1=CC(CC(O)CN2CCOCC2)c2ccccc21 (stereo unspecified)	93.5
c1cc(-c2cnn3cc(-c4ccc(OCCN5CCCCC5)cc4)cnc23)ccn1	114.9
O=C1CNC(=S)N1c1ccccc1	96.8
O=C1NC(=O)/C(=C/c2ccc3nccnc3c2)S1	102.1&96.0
CN1C(=O)C(=Cc2ccc(O)cc2)C(=O)N(C)C1=S	59.6
O=C(c1cc(=O)c2ccccc2o1)N1CCCc2ccccc21	90.5
CS(=O)(=O)c1ccc(-c2cc(Br)sc2-c2ccc(F)cc2)cc1	95.9
CSc1ccccc1C(=O)Nc1ccccc1	95.9
O=C(c1ccccc1)c1cccc(NC(=O)C2CC2)c1	87.8
O=c1cc(-c2ccccc2)nc(-c2ccc(Br)cc2)[nH]1	97.7
NC(=O)CSc1nnc(SCCOc2ccccc2)s1	97.8
Cc1onc(-c2ccccc2)c1NC(=O)N(CCC#N)C(C)C	93.9
Cc1ccc(NNC(=O)c2ccno2)cc1Cl	93.1
O=C(Cn1nnc(N2CCCCC2)n1)N/N=C/c1cccnc1	95.7
CC(C)C(=O)NC(=S)Nc1ccc2oc(-c3cccnc3)nc2c1	94.0
CCC(NC(=O)NCc1ccc2c(c1)OCO2)(C(F)(F)F)C(F)(F)F	94.0
Cc1ccc(F)cc1NC(C#N)c1ccccc1 (stereo unspecified)	96.2
CC(=Nc1ccccc1)C1=C(O)COC1=O	93.9
O=C1CN(C(=O)c2ccc(Br)cc2)c2ccccc2N1	96.5
CN(C(=S)NCc1ccccc1)C1CCCCC1	101.8
Cn1cnc(S(=O)(=O)N2CCCN(C(=O)OC(C)(C)C)CC2)c1	97.5
CN1C(=O)CC(Nc2ccc(N(C)C)cc2)C1=O (stereo unspecified)	97.0
Cc1ccc2oc(=O)cc(CN(C)CCO)c2c1	93.8
CN1C(=O)/C(=C2\SC(N3CCCCCC3)=NC2=O)c2ccccc21	100.2
COC(=O)Cn1c(C)nc2ccccc21	98.4
Cc1c(S(=O)(=O)C(C)C)c(N)n(Cc2ccc(Cl)cc2Cl)c1C	98.2
C=CCN1CCc2c(cc(O)c(O)c2Cl)C(c2ccccc2)C1 (stereo unspecified)	91.4

Some of the entries above in another layout.
SMILES | RVFV N-RNA inh
CN1C(=O)CC(Nc2ccc(N(C)C)cc2)C1=O (stereo unspecified) | 97.0
COC(=O)Cn1c(C)nc2ccccc21 | 98.4
Cc1c(S(=O)(=O)C(C)C)c(N)n(Cc2ccc(Cl)cc2Cl)c1C | 98.2
CN(C(=S)NCc1ccccc1)C1CCCCC1 | 101.8
CN1C(=O)/C(=C2\SC(N3CCCCCC3)=NC2=O)c2ccccc21 | 100.2
O=C1CN(C(=O)c2ccc(Br)cc2)c2ccccc2N1 | 96.5
CC(=Nc1ccccc1)C1=C(O)COC1=O | 93.9
Cn1cnc(S(=O)(=O)N2CCCN(C(=O)OC(C)(C)C)CC2)c1 | 97.5
C=CCN1CCc2c(cc(O)c(O)c2Cl)C(c2ccccc2)C1 (stereo unspecified) | 91.4
Cc1ccc2oc(=O)cc(CN(C)CCO)c2c1 | 93.8

Remaining list, next part.
SMILES	RVFV N-RNA inh
CN(C)c1nc(NCCO)c2cnn(C)c2n1	91.1
Cc1cc(NC(=O)c2cccc(-n3cnnc3)c2)no1	94.6
Cc1cc(Cl)c2ccccc2[n+]1[O-]	95.4
Cc1ccc(SCCC(=O)N2CCCC2)cc1	99.8
N#CCSc1nc2ccc(Cl)cc2[nH]1	100.2
O=C(O)c1ccc(COc2ccc(Cl)cc2)o1	93.7
CC(C)CCOc1ccc2c3c(c(=O)oc2c1)CCC3	91.5
CN1CCN(C(=O)CC(c2ccccc2)c2ccccc2)CC1	91.0
N=c1ccn2c(n1)O[C@H]1[C@H](O)[C@@H](CO)O[C@H]12	105.3
O=C1CCC(=O)N1OCCCOc1ccccc1	98.0
CCOC(=O)N1CCN(C(=O)CN(c2ccccc2)S(=O)(=O)c2ccc(F)cc2)CC1	93.7
N#Cc1ccc(OC(=O)c2ccc(Cl)cc2)cc1	91.6
CCC(=O)n1nc(NCc2ccc(F)cc2)nc1NCc1ccc(F)cc1	93.4
O=C1NC(=O)N(c2ccccc2)C(=O)/C1=C/C=C/c1ccco1	103.2
OC1CCN(Cc2c[nH]c3ccccc23)CC1	94.2
CCC1=C(C(=O)OC)C(c2cccc(O)c2)n2ncnc2N1 (stereo unspecified)	101.4
CCc1ccccc1CSc1n[nH]c(=O)n1Cc1ccco1	95.7
Cc1cc(C(=O)NCc2ccc(S(N)(=O)=O)cc2)cs1	111.6
O=C(O)CN=CC1=C(O)CC(c2ccccc2)CC1=O (stereo unspecified)	96.3
O=c1[nH]c2c(cnn2-c2ccccc2)c(=O)n1-c1ccc(Cl)c(Cl)c1	95.6
CC(C)(C)c1nc(N)nc(NNS(=O)(=O)c2ccccc2C(F)(F)F)n1	102.1
CCC(=O)NC(Nc1ccc(S(=O)(=O)Nc2ccc(OC)nn2)cc1)(C(F)(F)F)C(F)(F)F	94.5
Cn1c2ccccc2c2nnc(SCCC(=O)N3CCCC3)nc21	87.0
CN1C(=O)C(Cc2c[nH]c3ccccc23)NC1=S (stereo unspecified)	102.4
CC(C)(C)n1nc2c(c1NC(=O)Nc1ccccc1)CSC2	95.5
Cc1c(CCN)sc2nc(-c3ccc(Cl)cc3)nn12	94.0
COc1ccc(CC(=O)N2CCN(C(=O)Cc3ccc(OC)cc3)CC2)cc1	83.7
Cc1nc2ccc(NC(=O)N(C(C)C)C(C)C)cc2s1	97.1
CS(=O)(=O)c1sc(C(=O)Sc2cccs2)c2c1C=CCC2	89.2
Brc1ccc(-c2nnco2)cc1	95.9
CCS(=O)(=O)c1cccc(C(=O)Nc2nnc(-c3ccc4c(c3)OCCO4)o2)c1	97.7
COCC(C)N=CC1=C(O)CC(C)(C)CC1=O (stereo unspecified)	94.3
Cc1ccc(S(=O)(=O)N=C2C=CC(=NS(=O)(=O)N(C)C)C=C2)cc1	83.1
COC(=O)Cc1cc(=O)n2c(nc3ccccc32)[nH]1	99.1
O=C(NCCc1ccccc1)c1ccc(N2CCCCS2(=O)=O)cc1	93.4
O=C(/C=C/c1ccccc1)Nc1nnc(C(F)(F)F)s1	93.1
O=c1ccc2ccccc2n1Nc1ccc(Br)cc1	95.7
CCCCc1ccc(NC(=O)CC)c(C)c1	105.5
CCn1c(=NC(=O)C2CC2)sc2c(OC)ccc(OC)c21	99.0
Cc1cc(C(=O)NCc2cccs2)cs1	90.9
CN(C)CCN(Cc1ccccc1)c1ccccn1	100.5
Cn1c(=O)c(C#N)c(O)c2ccccc21	91.0
